Source: PubChem BioAssay
NPYLR7 ag = mosquito NPYLR7 agonism. HEK293T NPYLR7/Galpha15, GCaMP6s calcium fluorescence. activation, % at 10 µM. 270,000 compounds, 0.15% hits. AID 1259423; in the data active means activation above about 40%;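 further: 0% = vehicle and 100% = reference agonist at the receptor; some compounds past the cut are filed as inactive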
NPYLR7 ag max-min = also measured in NPYLR7 ag; calls as there; activation, %; measured here: Max-Min RFU normalised activation; some inactives read as strong as hits;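 span of the calcium signal over five minutes; 0% = vehicle and 100% = native peptide agonist; compound fluorescence can raise it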
* hit, by the source's call.

1: CCCCn1c(=N)c(C(=O)OCC)cc2c(=O)n3cccc(C)c3nc21
2: COC(=O)C1Cc2nc[nH]c2CN1C(=O)c1cc2n(n1)CCN(C)C2 (configuration not stated)
3: COc1ccc(CCN(C)C(=O)c2cc(-c3cccs3)nn2-c2ccccc2Cl)cc1OC
4: Cc1ccccc1C(C)NC(=O)C1CCN(S(=O)(=O)c2ccc3c(c2)OCCCO3)CC1 (configuration not stated)
5: O=C(N[C@H]1CC[C@@H]2SC[C@@H](C(=O)NCc3cccnc3)N2C1=O)c1cccc(SC(F)F)c1
6: Cc1ccc(-n2cccn2)c(-c2c(-c3ccccc3)ncn2C[C@H](C)O)c1
7: O=C(c1ccc(CSc2nc3ccc(Cl)cc3o2)cc1)N1C2CCC1CC(Oc1ccc(F)cc1F)C2 (configuration not stated)
8: CC1=CC[C@H](C2(C)CC(C(=O)O)=NO2)CC1=O (some centres not stated)
9: CCCc1cnc(C)nc1-c1ccn[nH]1
10: COC(=O)c1cnc(Nc2nc(C(N)c3ccccc3Cl)cs2)nc1C(F)(F)F (configuration not stated)

Screen / compound no.	1	2	3	4	5	6	7	8	9	10
NPYLR7 ag	15	12	1	-8	7	3	9	4	-2	-6
NPYLR7 ag max-min	25	11	16	-10	3	1	2	17	0	-13

11: CC(=NNC(=O)c1cc(C)oc1C)c1ccc(Br)s1
12: Cc1cccc2c1C(NC(=O)c1cccc3ccnn13)C(=O)N2 (configuration not stated)
13: CCOC(=O)C1CCN(C(=O)c2cccc(CSc3nc(Cl)cc(N(C)Cc4ccccc4)n3)c2)CC1
14: CCCCOc1ccc(C(=O)N2CCC3(CC2)NC(=O)c2cccc(C)c2N3)cc1
15: C=CCOC(CN1CCN(C(=O)COCc2ccccc2)CC1)c1cccc(N2CCCC2)c1 (configuration not stated)
16: CN(C(=O)c1cccc(Cn2cccn2)c1)C1Cc2ccccc2C1
17: COc1ccc(C2=NCCN=C(C(F)(F)F)C2)cc1
18: COc1cccc(Cc2nsc(N3CCC(CNC(=O)Nc4c(C(C)C)cccc4C(C)C)CC3)n2)c1
19: Cc1n[nH]c(C)c1CCN(C)C(=O)c1cn(CC2CCCO2)nn1 (configuration not stated)
20: COC(=O)c1[nH]ncc1CN1CCCCC1CCc1ccc(O)cc1 (configuration not stated)

Screen / compound no.	11	12	13	14	15	16	17	18	19	20
NPYLR7 ag	6	0	-1	-2	-5	3	-2	-11	-11	4
NPYLR7 ag max-min	5	-4	8	-4	-3	2	-5	-15	-10	-8

Brought forward from above: 3 compounds; new compounds follow.
18: COc1cccc(Cc2nsc(N3CCC(CNC(=O)Nc4c(C(C)C)cccc4C(C)C)CC3)n2)c1
19: Cc1n[nH]c(C)c1CCN(C)C(=O)c1cn(CC2CCCO2)nn1 (configuration not stated)
20: COC(=O)c1[nH]ncc1CN1CCCCC1CCc1ccc(O)cc1 (configuration not stated)
21: COc1ccccc1C(=O)N1CCN(C(=O)CCCSc2nnc(-c3ccccc3)n2-c2ccccc2OC)CC1C (configuration not stated)
22: c1ccc2c(CN3CCCCC3CCn3ccnc3)ccnc2c1 (configuration not stated)
23: CSc1ccc(C(=O)N2CCC3(CC2)C(=O)NCN3c2ccccc2)c(-c2cccc(F)c2)c1
24: CCN1CCC(N(C)CCn2cncn2)C(C)C1 (configuration not stated)
25: CC(C)Oc1ccc(C(=O)Nn2cnc3c(cnn3C(C)(C)C)c2=O)cc1
26: O=C(NCC1CCOC1)c1cc(Cn2cnc3ccccc32)[nH]n1 (configuration not stated)
27: CCOC(=O)c1ccc(S(=O)(=O)NCc2ccc3c(c2)OCCO3)cc1
28: CCN1C(=O)NC(c2cccc(Oc3ccccc3)c2)C2=C1CN(C(CC(C)C)C(=O)NCCc1cccs1)C2=O (configuration not stated)
29: CCc1nc2n(n1)C(=O)C(C(c1cccc(Cl)c1)N1CCN(CC)CC1)S2 (configuration not stated)
30: Cn1cc(CCCN2CCN(Cc3nccn3C(F)F)CC2)cn1

Screen / compound no.	18	19	20	21	22	23	24	25	26	27	28	29	30
NPYLR7 ag	-11	-11	4	-5	-5	-8	0	3	22	5	-1	-6	2
NPYLR7 ag max-min	-15	-10	-8	-1	-5	-17	-6	2	18	2	0	-10	0

31: CCOc1ccc(C(c2c(O)cc(C)n(CCOC)c2=O)N2CCC(C)CC2)cc1 (configuration not stated)
32: CNc1ncccc1C(=O)N(Cc1ccc(SC)cc1)C1CC1
33: CCOc1ccc(N2C(=O)CSC2c2cccc(NC(=O)Cc3cccs3)c2)cc1 (configuration not stated)
34: Cc1ccc(F)c(NC2CCCN(C(=O)c3ccc(Cl)cc3)C2)c1 (configuration not stated)
35: CCc1ccc(C(C)Nc2c(C#N)c(=O)n(C)c(=O)n2C)cc1 (configuration not stated)
36: COc1ccccc1N1CCN(C(=O)c2cc(-c3ccc(C)o3)nn2-c2ccc(C)cc2C)CC1
37: CCC(Cn1ccnc1-c1ccoc1)N1CCOCC1 (configuration not stated)
38: Cn1c(=O)c2cc(C(=O)NCCc3ccccc3)n(Cc3ccco3)c2n(C)c1=O
39: COCCN(CC(=O)N(Cc1ccc(F)cc1)Cc1ccc(C)s1)C(=O)c1ccc(OC)cc1
40: CC(C)(Cc1ccc(F)cc1)NC(=O)c1cccnc1Oc1ccc(Cl)cc1

Screen / compound no.	31	32	33	34	35	36	37	38	39	40
NPYLR7 ag	9	-4	-5	2	4	-2	2	-1	0	-3
NPYLR7 ag max-min	2	-8	1	7	3	8	1	-1	3	-6

41: O=C(c1cc2ncc(CCO)cn2n1)N1CCC1c1ccc(F)cc1 (configuration not stated)
42: COc1cccc(CC2(CO)CCCN(C(=O)CCCc3ccc(Cl)cc3)C2)c1 (configuration not stated)
43: CCOc1ccc(C2NC(=O)NC3=C2C(=O)N(CC(OC)OC)C3)cc1 (configuration not stated)
44: COc1cc(/C=C2N=C(/C=C/c3ccc(Cl)cc3)OC/2=O)cc(OC)c1OC
45: CC(C)C(NS(=O)(=O)c1cccs1)C(=O)NNC(=O)c1ccccc1O (configuration not stated)
46: CC1CCC(NC(=O)C(C)n2cncn2)CC1 (configuration not stated)
47: Cc1nc(C)c(C(=O)NCc2cccnc2N(C)C2CCCCC2)s1
48: CC(c1ccc(C(F)(F)F)cc1)N1CCN(CCS(C)(=O)=O)CC1 (configuration not stated)
49: O=C(c1ccc(NS(=O)(=O)c2ccc3[nH]c(=O)[nH]c3c2)cc1)N1CCC1
50: Oc1oc(-c2ccco2)nc1C=Nc1ccccc1

Screen / compound no.	41	42	43	44	45	46	47	48	49	50
NPYLR7 ag	0	4	2	-16	3	3	13	4	6	-3
NPYLR7 ag max-min	2	10	0	-17	5	0	2	2	1	-6

51: CCOc1ccc(OCCNS(=O)(=O)c2ccc3c(c2)CC(C)N3C(C)=O)cc1 (configuration not stated)
52: Cc1nc(NCCc2nc(C)c3c(n2)CCCC3)c2cnn(C)c2n1
53: CCCCCC(=O)N1CC(=O)N(Cc2ccc(C)cc2)CC(O)C1 (configuration not stated)
54: C=CCNc1nc2c(c(=O)[nH]c(=O)n2C)n1CC(O)CO (configuration not stated)
55: COC(=O)c1ccccc1NC(=O)N1CCc2cc(OC)c(OC)cc2C1c1ccccc1Cl (configuration not stated)
56: CCc1cc(CN2CCOc3c(cc(-c4cccs4)cc3OC)C2)[nH]n1
57: O=C(CCCn1nnnc1CN1CCc2ccccc2C1)NCC1COCCO1 (configuration not stated)
58: CC1=C(C(=O)OC(C)C)C(c2cccc(F)c2)C2=C(CCCC2=O)N1 (configuration not stated)
59: C[C@]12C=CC(=O)C=C1CCC1C2C(=O)C[C@@]2(C)C1CC[C@]2(O)C(=O)CO (some centres not stated)
60: CNS(=O)(=O)c1ccc2c(c1)OCCO2

Screen / compound no.	51	52	53	54	55	56	57	58	59	60
NPYLR7 ag	-11	1	6	4	21	2	3	-5	-6	-5
NPYLR7 ag max-min	-11	-4	21	2	6	0	2	-10	-13	-7

Entries of single compounds as entered above:
O=C(CCCn1nnnc1CN1CCc2ccccc2C1)NCC1COCCO1 (configuration not stated) is listed with NPYLR7 ag: 3; NPYLR7 ag max-min: 2
CC(C)C(NS(=O)(=O)c1cccs1)C(=O)NNC(=O)c1ccccc1O (configuration not stated) is listed with NPYLR7 ag: 3; NPYLR7 ag max-min: 5

The list continues:
61: CCOCCCNC(=O)c1cc(NC(=O)CCC(=O)OCC)ccc1N1CCCCC1
62: O=C(CCC(=O)N1CCC(O)(Cn2ccnc2)CC1)NC1CCCC1
63: Cc1cc(-c2nnc(N)o2)n(C)n1
64: CC1=C(C(=O)OCCOc2ccccc2)C(c2ccc(N(C)C)cc2)NC(=O)N1 (configuration not stated)
65: Cn1nc(C(C)(C)C)cc1NC(=O)C1(C)CCN1C(=O)c1ccc(C(C)(C)C)cc1 (configuration not stated)
66: OC(c1ccc(CN2CCOCC2)cc1)c1nnc(Nc2cccc(Cl)c2)s1 (configuration not stated)
67: Cc1ccc(NC(=O)CCCn2c(=O)oc3cc([N+](=O)[O-])ccc32)nc1
68: CCCNc1cc(C)nc2c(C)c(-c3ccc(OC)c(OC)c3)nn12
69: C=CCOCC(O)CN(CC(=O)N1CCc2sccc2C1COc1cccc(C)c1)CC1CC1 (configuration not stated)
70: O=C(c1ccccc1N1CCS(=O)(=O)CC1)N1C[C@H]2CC=CC[C@H]2C1

Screen / compound no.	61	62	63	64	65	66	67	68	69	70
NPYLR7 ag	-5	2	2	-5	1	2	11	-1	7	10
NPYLR7 ag max-min	1	5	3	-7	0	2	7	-5	7	5

71: CCOC(=O)c1cc(-c2ccc(N3CCN(C(=O)COc4ccc(Cl)cc4)CC3)cc2)n(-c2ccccc2Cl)n1
72: CCCCC(CCC#N)(CCC#N)C(C)=O
73: Cc1cc(C)cc(-c2nc(SCC(=O)Nc3cc(C)on3)c3c(=O)n(C)c(=O)n(C)c3n2)c1
74: COC(=O)CCCCCCC(=O)N1CCC(c2cn(Cc3cccc(F)c3)c3ccccc23)CC1
75: CSc1nc(N)nc(SC/C=C/c2ccccc2)c1C#N
76: COC(=O)C1=C(C)N=c2s/c(=C/c3ccc(N(C)C)cc3)c(=O)n2C1c1ccc(F)cc1 (configuration not stated)
77: CCn1nc(C)c(Cn2ccnc2-c2cc(OC)c3c(c2)OCO3)c1C
78: CCCCOc1ccc(C(=O)N(CC(=O)NCC(=O)Nc2cccc(C)c2)Cc2ccccc2)cc1
79: C=CCNC(=O)Cn1c(CO)cnc1SCc1c(F)cccc1Cl
80: COc1cccc(CC2(CO)CCCN(Cc3ccccc3C(F)(F)F)C2)c1 (configuration not stated)

Screen / compound no.	71	72	73	74	75	76	77	78	79	80
NPYLR7 ag	22	-1	-5	29	-10	2	3	-4	0	12
NPYLR7 ag max-min	9	-5	-7	14	-9	-3	-1	7	-1	15

81: CC(C)(CN1CCc2ccccc2C1)NS(=O)(=O)c1ccccc1
82: O=C(NCc1cccc(OC(F)(F)F)c1)c1ccc(-c2cccc(C(F)(F)F)c2)s1
83: CCC1CN(C)c2ccccc2CN1C(=O)c1ccc(F)c(S(=O)(=O)N2CCC2)c1 (configuration not stated)
84: CCCCCn1c(N2CCN(c3ccccc3)CC2)nc2c1c(=O)[nH]c(=O)n2C
85: CN(C)C(C(=O)NCCS(=O)(=O)N(C)C)c1cccc(F)c1 (configuration not stated)
86: Cc1cc(C)c(S(=O)(=O)N2CCNC(=O)CC2c2ccccc2)c(C)c1 (configuration not stated)
87: Cc1oc(-c2ccccc2Cl)cc1C(=O)Nc1ccccc1
88: COc1ccc(F)c(CNS(=O)(=O)NCc2ccccc2)c1F
89: O=C(NCCN1C(=O)CSC1=O)C(c1ccccc1)N1CCCC1 (configuration not stated)
90: Cc1nnc(NC(=O)CC2CSc3nc4c(cnn4-c4ccccc4)c(=O)n32)s1 (configuration not stated)

Screen / compound no.	81	82	83	84	85	86	87	88	89	90
NPYLR7 ag	-23	5	-9	2	15	6	2	4	0	1
NPYLR7 ag max-min	-24	-1	-10	6	-3	3	-6	4	-4	1

91: CC(C)CC1(C)NC(=O)N(CC(=O)Nc2ccc(C#N)cc2)C1=O (configuration not stated)
92: CC(=O)N1CCC(NC(=O)Cc2coc3cc4c(cc23)CCC4)CC1
93: CCC(CC)C(=O)N1CCC2(CC1)CN(C/C=C/c1ccco1)CCN2C
94: COc1ccc(C2=NN(C(C)=O)C(c3ccc(OC)cc3)C2)cc1 (configuration not stated)
95: CC(Cc1cnccn1)NC(=O)c1ccc(OC2CCN(Cc3ccccn3)CC2)cc1 (configuration not stated)
96: CCCCCC(=O)NN=Cc1c[nH]c2ccccc12
97: O=c1c2nc(N3CCOCC3)sc2c(-c2cccs2)nn1Cc1ccccc1Cl
98: CC(C)c1cc(C2CCCN2C(=O)c2cnn3c2CCCC3)no1 (configuration not stated)
99: CC(=O)Nn1cnc2c(cnn2C(C)(C)C)c1=O
100: COc1c(C)cnc2c1c(=O)n(CC(=O)NC(C)C)c(=O)n2C
101: CCN(Cc1noc(CC(C)C)n1)Cc1cc2c(cc1Cl)OCO2

Screen / compound no.	91	92	93	94	95	96	97	98	99	100	101
NPYLR7 ag	-2	-3	-6	-7	-1	-7	-2	8	6	1	19
NPYLR7 ag max-min	-2	-4	-10	-14	-2	-7	-6	2	6	-1	7

A portion of the library (hit frequency here may not be typical).
